UCH37 DUB inh: inhibitors of human UCH37 deubiquitinase, primary screen, biochemical, Ub-AMC cleavage, fluorescence; purified proteasome/UCH37; inhibition, % (test concentration not listed); hit rate 0.33% among 330,000; Ubiquitin carboxyl-terminal hydrolase isozyme L5 (Homo sapiens), Q9Y5K5;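 active = mean of two replicates above 20%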;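 note: 0% = compound-free wells with enzyme and 100% = wells lacking proteasome; stock transfer was 100 nL into about 20 µL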
Target sequence (Q9Y5K5 whole entry, looked up): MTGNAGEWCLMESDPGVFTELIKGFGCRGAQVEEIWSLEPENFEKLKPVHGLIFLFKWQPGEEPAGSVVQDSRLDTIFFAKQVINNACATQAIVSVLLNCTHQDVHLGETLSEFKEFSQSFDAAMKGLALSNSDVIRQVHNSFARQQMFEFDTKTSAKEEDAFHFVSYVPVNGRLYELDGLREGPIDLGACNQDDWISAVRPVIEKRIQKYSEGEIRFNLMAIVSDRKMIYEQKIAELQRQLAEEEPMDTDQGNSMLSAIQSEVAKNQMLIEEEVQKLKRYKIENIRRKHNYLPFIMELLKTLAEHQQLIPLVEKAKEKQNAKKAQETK
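Material: human UCH37 enzyme supplied as purified proteasome complex / Amount: 0.15 nM proteasome as dispensed / Buffer or medium: pH 7.4 Tris-HCl (50 mM) with ovalbumin, ATP-MgCl2, DTT / Times: preincubation 30 min, reaction 25 min, room temperature / Technique: AMC fluorescence from Ub-AMC cleavage, excitation 355 nm, emission 460 nm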
Beta apoptosis: inhibitors of cytokine-induced beta cell apoptosis, primary screen, luminescence | INS-1E cytokine-induced death, ATP luminescence, 48 h; percent of positive-control rescue, neutral wells zero | protection from apoptosis, % (test concentration not listed) | hit rate 0.8% among 300,000;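 active = all replicates at 75% or more, or half of them and the mean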;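 note: 0% = cytokine-treated negative control wells and 100% = positive control rescue; higher means more ATP so stronger rescue from cytokine killing; wells of about 40 µL received 100 nL stock; the first replicate is given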
A1 inh: caspase 3/7 activation in MEF A1-2A-BIM cells, primary screen, A1 inhibitor project, cell-based, luminescence, HTS. Caspase-Glo 3/7 luminescence, 3 h; percent of clofoctol response, vehicle zero. caspase activation, % (test concentration not listed). hit rate 0.066% among 330,000;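 active = over half of replicate activation scores above 10%, or exactly half above 10 with the replicate mean above 10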;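 note: wells of about 30 µL received 50 nL stock; many hits fall short of the cut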
E coli growth: E. coli growth inhibition, primary screen, OD600 | OD600 absorbance (concentration not given with the values) | AID 1053175, 2014 | hit rate 0.21% among 330,000 | Escherichia coli growth, 23 h; stronger effect = lower value;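 active = OD600 absorbance below the run mean of sample wells minus 3.6 SD, in any replicate, cut at about 0.56 in these data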;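 note: stock transfer was 300 nL into about 60 µL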
MLL AF4-AF9 inh: inhibitors of AF4 peptide binding to AF9, primary screen, biochemical, AlphaScreen, biotin-AF4 peptide, FLAG-AF9, single point; Protein AF-9 (Homo sapiens), P42568; inhibition, % at 10 µM; hit rate 0.47% among 350,000; AID 651704, 2012;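 active = every replicate reaching a set inhibition limit, whatever the replicate mean, cut at about 25% in these data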;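 note: 0% = plate neutral control median and 100% = total signal loss; the record names both 10 and 1 µM as test concentration; the first replicate is given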
Target sequence (P42568 whole entry, looked up): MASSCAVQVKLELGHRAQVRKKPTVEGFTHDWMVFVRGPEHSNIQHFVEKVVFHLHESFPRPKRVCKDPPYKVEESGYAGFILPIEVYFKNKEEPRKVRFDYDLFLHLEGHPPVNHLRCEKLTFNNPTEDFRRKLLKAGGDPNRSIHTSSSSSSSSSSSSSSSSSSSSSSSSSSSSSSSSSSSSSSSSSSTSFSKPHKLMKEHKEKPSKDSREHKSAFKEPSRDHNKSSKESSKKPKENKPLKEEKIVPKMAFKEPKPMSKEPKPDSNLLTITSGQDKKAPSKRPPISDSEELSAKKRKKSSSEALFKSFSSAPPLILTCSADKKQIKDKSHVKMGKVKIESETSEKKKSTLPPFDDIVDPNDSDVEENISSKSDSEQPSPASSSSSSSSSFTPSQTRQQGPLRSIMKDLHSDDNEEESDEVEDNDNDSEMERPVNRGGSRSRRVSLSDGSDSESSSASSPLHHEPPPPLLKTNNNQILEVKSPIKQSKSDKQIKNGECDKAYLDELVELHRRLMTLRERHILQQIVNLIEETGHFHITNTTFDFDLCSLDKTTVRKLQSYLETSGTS
T cruzi inh: inhibitors of intracellular T. cruzi growth, primary screen, luminescence, NIH3T3 host cells; T. cruzi beta-gal in NIH3T3, 90 h; inhibition, % (no concentration beside the values); hit rate 1.4% among 300,000;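 active = mean inhibition across valid replicates above about 55%, limit read from the data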;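 note: signal also drops with host cell toxicity which is not excluded here; 0% = plate median of DMSO wells and 100% = zero luminescence signal; higher percent means less beta-gal luminescence so fewer parasites; stock transfer was 50 nL into about 50 µL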
rRNA inh HTS: reduced GFP signal of wild-type E. coli, primary screen, bacterial rRNA inhibitor project, GFP/RFP fluorescence, OD600, single point. hit rate 1.6% among 350,000. E. coli WT GFP vs humanized-ribosome RFP mutants, 24 h; stronger effect = lower value; DMSO median 0, no signal -100. GFP signal change (wild-type ribosome), % (concentration not given with the values);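 active = significant combined selectivity score with lowered wild-type GFP, culture density cut under 30%, mutant RFP and density less affected; inactive = any of these conditions unmet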; note: one replicate is shown; some compounds called inactive have numbers as strong as hits
FGF22 binding: binders of human FGF22 protein, primary screen, FGF22 synaptogenesis inhibitor project, biophysical, thermal shift, single point; Fibroblast growth factor 22 (Homo sapiens), Q9HCT0; recombinant FGF22 thermal shift, SYPRO orange fluorescence; percent of sucrose octasulfate shift, DMSO zero; calls only at 9.99 µM; hit rate 1.5% among 340,000;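 active = melting point raised past a set limit in the mean and every replicate; three in four hits are not shown here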
Target sequence (Q9HCT0 whole entry, looked up): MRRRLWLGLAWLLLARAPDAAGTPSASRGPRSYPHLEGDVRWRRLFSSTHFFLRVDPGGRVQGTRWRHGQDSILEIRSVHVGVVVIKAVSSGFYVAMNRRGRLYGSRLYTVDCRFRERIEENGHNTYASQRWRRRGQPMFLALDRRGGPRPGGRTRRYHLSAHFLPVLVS
rRNA inh HTS OD600: second read-out of rRNA inh HTS, no call of its own (marks repeat the call); OD600 change, %; measured here: OD600 growth;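 optical density of the mix in the first replicate; 0 = DMSO median and -100 = no signal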
rRNA inh HTS RFP: second read-out of rRNA inh HTS, no call of its own (marks repeat the call); RFP signal change, %; measured here: RFP humanized mutant strains;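 first replicate; 0 = DMSO median and -100 = no signal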
An asterisk follows results filed as active; i = inactive; . = not tested or not shown; + = active, no number. An excerpt; rates above refer to the full screens.

Results follow in this order: UCH37 DUB inh	Beta apoptosis	A1 inh	E coli growth	MLL AF4-AF9 inh	T cruzi inh	rRNA inh HTS	rRNA inh HTS OD600	rRNA inh HTS RFP	FGF22 binding
1. COCCn1c(SCC(=O)NCC(c2ccccc2)N(C)C)nc2sc3c(c2c1=O)CCC3 (centres undefined)
    6.5	.	.	0.706	4.9	.	-2.6	-6.3	0.4	i
2. O=C(NCc1ccccc1)C1(CC2CC(c3ccccc3)=NO2)CCNCC1 (centres undefined)
    3.3	4.3	-0.8	.	9.2	.	0.0	-4.3	11.3	i
3. COc1ccc(N2CCN(C(=O)c3ccc4c(c3)OCO4)CC2)cc1
    -0.8	-3.6	0.1	0.764	.	19.4	.	.	.	.
4. CCOc1ccc(S(=O)(=O)N2CCCCC2)cc1NC(=O)C1COc2ccccc2O1 (centres undefined)
    1.0	19.7	-1.4	0.724	0.6	.	1.1	-4.1	0.0	i
5. Cc1onc(-c2ccccc2)c1C(=O)OCC(=O)Nc1ccc(C#N)cc1
    5.0	12.4	0.7	0.646	0.1	.	-15.4	-42.1	10.7	i
6. COc1ccc(OC)c(NC(=O)CSc2ccc3nnc(-c4cccnc4)n3n2)c1
    5.2	-6.7	-1.3	0.709	0.5	4.1	4.4	4.4	1.4	i
7. Cc1cccnc1NC(=O)c1ccc(NS(=O)(=O)c2ccc3[nH]c(=O)[nH]c3c2)cc1
    0.2	-0.3	0.4	0.617	-15.1	-0.7	-1.4	-3.4	-2.0	i
8. COC(=O)c1ccc(/C=N/NC(=O)CCSc2nc3ccccc3s2)cc1
    .	2.3	-0.8	.	-2.4	-18.4	10.7	4.5	0.8	i
9. COc1ccc(CSCCc2n[nH]c(=S)n2-c2ccccc2)cc1
    1.2	-0.9	0.7	0.708	-6.0	-3.2	-11.8	-16.9	1.9	i
10. O=c1c(C=Nc2cccc(C(F)(F)F)c2)c[nH]n1-c1cccc(Cl)n1
    4.8	3.2	-0.6	0.692	.	-0.6	.	.	.	.
11. CCc1c(C(=O)N/N=C/c2ccc(OCc3ccc(F)cc3)c(OC)c2)nnn1-c1nonc1N
    .	1.7	-0.5	.	0.4	18.0	1.5	3.1	-3.9	i
12. CCOP(=O)(c1c(F)c(F)c(F)c(F)c1F)C(O)c1ccccc1 (centres undefined)
    1.5	-9.2	0.0	0.763	.	-1.1	.	.	.	.
13. CCOCCCNS(=O)(=O)c1ccc(NC(=O)c2ccccc2)cc1
    2.2	0.3	0.5	0.698	-3.1	-31.3	1.4	10.5	2.3	+
14. CC(=O)Nc1ccc(S(=O)(=O)N2CCN(Cc3cccc([N+](=O)[O-])c3)CC2)cc1
    0.7	.	1.0	0.66	1.0	3.9	-1.4	-4.5	4.1	i
15. CCNC(=O)CCSc1nnc(-c2ccncc2)o1
    0.7	4.8	0.4	0.732	-1.3	-14.2	3.6	-8.3	-2.1	i
16. O=C(c1ccccc1)c1cc(-c2ccccn2)c(N2CCOCC2)s1
    -6.2	1.5	1.5	0.65	.	3.0	.	.	.	.
17. COc1ccc(-c2c(-c3ccsc3)oc(=O)c3cc(OC)c(OC)cc23)cc1
    -0.8	-2.2	-0.9	0.718	8.2	.	-9.8	-2.9	-5.3	i
18. CCCNC(=S)Nc1ccccc1
    3.7	-3.0	-0.1	0.627	-3.0	-9.7	10.3	21.1	1.1	i
19. CCOc1ccccc1OCCCC(=O)NNC(=O)c1ccc(F)cc1
    1.4	.	.	0.65	-0.5	.	10.8	16.1	4.6	i
20. O=C(NCCN1CCOCC1)C(=O)NCC1OCCN1S(=O)(=O)c1ccccc1 (centres undefined)
    -3.7	-2.5	0.6	0.662	-0.4	2.4	8.4	5.7	-2.5	i
21. CCOc1ccc(OCc2cccc(C(=O)N3CCCC3)c2)cc1
    5.7	2.7	0.1	0.661	.	3.7	-24.4	-20.5	-4.0	.
22. Cc1c(Cl)c([N+](=O)[O-])nn1CC(=O)NCc1cccnc1
    1.4	-0.3	0.5	0.673	2.2	43.0	5.4	2.6	-1.8	i
23. O=C(Nc1nccs1)C1(c2ccc(Cl)cc2)CC1
    1.4	0.4	0.3	0.63	-5.3	-5.3	7.6	-6.3	-5.5	i
24. O=C(CCNC(=O)c1ccc(Br)cc1)Nc1cccc(S(=O)(=O)N2CCCC2)c1
    -0.1	0.4	-0.5	0.622	-32.8	-3.0	-20.9	-22.0	0.3	i
25. CSc1nsc(SC)c1CO
    -0.2	-1.0	0.1	0.639	.	.	8.9	-4.2	0.4	i
26. Cn1c(=O)[nH]c(=O)c2c1nc(N1CCN(C(=O)c3ccco3)CC1)n2CCCSc1ncccn1
    2.5	.	.	0.69	-4.2	.	12.4	0.6	-4.9	i
27. Cc1ccc(-n2nc(C(=O)c3ccccc3)n3c(=O)cc(-c4ccccc4)nc23)cc1
    -2.8	1.9	-1.0	0.754	.	15.6	.	.	.	.
28. CCCCNS(=O)(=O)c1ccc2nc(-c3cccnc3)cc(C(=O)NCCOC)c2c1
    3.7	5.4	0.3	0.711	10.1	-4.5	-3.0	8.7	-2.2	i
29. CCN(CC)C(=O)C1CCN(S(=O)(=O)c2ccc(-n3cnnn3)cc2)CC1
    1.8	2.0	-0.3	0.641	-0.4	-3.1	6.0	10.9	-0.4	i
30. O=C1C[C@@H]2c3c(cccc3CN1Cc1ccc(Cl)cc1)C[C@@H](O)[C@H]2O
    1.2	.	.	.	-3.8	.	-5.5	-9.7	-4.0	i
31. Cc1cn2c(-c3cccnc3)nnc2s1
    3.4	-9.0	0.0	0.672	.	-3.8	.	.	.	.
32. O=C(NCc1ccco1)C1CCN(S(=O)(=O)N2CCOCC2)CC1
    2.3	0.8	0.2	0.724	.	-9.6	.	.	.	.
33. CCC1COCCS(=O)(=O)N1Cc1ccccc1F (centres undefined)
    2.7	4.2	-0.6	0.711	-8.0	-17.2	1.3	14.8	1.7	i
34. Cc1ccc(Cn2c(SCC(=O)Nc3cc(C)on3)nc3ccccc3c2=O)cc1
    4.2	24.6	-1.3	0.75	.	-4.8	.	.	.	.
35. O=c1c2c(-c3cccs3)csc2ncn1-n1cccc1
    2.6	-0.1	-0.5	0.671	7.6	-18.7	-0.6	-3.1	-4.4	i
36. Cc1nc(-c2cccc(NC(=O)c3cccs3)c2)cs1
    3.6	-2.8	-1.1	0.698	.	-8.5	.	.	.	.
37. COc1ccc(OC)c(NC(=O)CSc2nc(-c3ccccc3)cc(=O)[nH]2)c1
    2.7	.	1.0	0.715	-0.7	-12.0	-0.8	-0.4	-1.3	i
38. CC1CCCCN1C(=O)CSc1nnc(-c2c[nH]c3ccccc23)o1 (centres undefined)
    -2.6	0.1	0.0	0.652	.	11.1	.	.	.	.
39. COc1ccc(OC)c(NC(=O)CSc2nnnn2C2CCCC2)c1
    2.6	.	.	0.66	1.5	-1.0	-5.5	-3.5	0.6	i
40. Cc1ccc(S(=O)(=O)NNC(=O)/C=C/c2cccc(F)c2)cc1
    4.0	1.5	-0.4	0.636	-6.1	-41.7	-2.8	1.8	0.5	i
41. COc1ccc(C#Cc2ccc3c(=O)c4ccccc4n(C)c3c2)cc1
    -19.9	2.0	0.2	0.752	.	27.2	.	.	.	.
42. COc1cc(C(=O)NCCCNc2ccc([N+](=O)[O-])cc2)cc(OC)c1OC
    2.9	5.9	-0.4	0.703	.	5.8	.	.	.	.
43. CN1CCN(c2nc(-c3cccnc3)nc3ccccc23)CC1
    -172.8	2.4	0.7	0.646	-15.7	47.3	-7.8	-6.3	-5.9	.
44. CN(C)CC(C)(C)CNS(=O)(=O)c1cccc2nsnc12
    -0.4	-3.5	0.1	0.684	.	4.4	.	.	.	.
45. CC(C)(O)[C@H](O)COc1c2occc2cc2ccc(=O)oc12
    -0.3	3.9	0.2	.	-2.4	5.0	8.9	8.4	2.0	i
46. COC(=O)[C@]1(C)N[C@H](CN(C)C(=O)c2ccc(C)cc2)[C@@H]2C(=O)N(Cc3ccccc3)C(=O)[C@@H]21
    4.2	-1.7	0.5	0.709	0.4	.	6.7	2.5	-1.7	i
47. CC(=O)c1c(C(C)=O)c(C)n(NC(=O)c2ccncc2)c1C
    -2.1	0.8	-1.4	0.677	.	-11.9	.	.	.	.
48. NCC(O)(c1ccc(Cl)cc1)c1ccc(Cl)cc1
    5.9	16.9	-0.2	0.626	4.7	50.3	-5.0	-0.5	-0.6	i
49. Nc1c(-c2ccccc2)c(CN2CCOCC2)nn1-c1ccccc1
    0.9	-4.3	0.4	0.67	1.3	-8.0	6.5	-4.5	-1.4	i
50. CCOc1ccc(Br)cc1S(=O)(=O)Nc1cccc(S(=O)(=O)Nc2ccccc2C(=O)O)c1
    -1.9	1.3	-0.2	0.682	-3.1	.	-7.0	-7.0	6.1	.

(list continues)
Results follow in this order: UCH37 DUB inh	Beta apoptosis	A1 inh	E coli growth	MLL AF4-AF9 inh	T cruzi inh	rRNA inh HTS	rRNA inh HTS OD600	rRNA inh HTS RFP	FGF22 binding
51. CC(O)[C@H]1CNC(=O)C(=O)N1CC1(c2ccccc2)CC1 (some centres undefined)
    0.9	-17.3	0.0	.	1.1	-10.9	.	.	.	i
52. CC(=O)OC[C@H]1O[C@@H](Sc2cccc3cccnc23)[C@H](OC(C)=O)[C@@H](OC(C)=O)[C@H]1OC(C)=O
    -59.5	6.2	-0.3	0.709	0.1	-26.6	5.9	5.1	1.2	i
53. COc1ccc(CCNC(=O)c2cc(-c3ccc(Cl)c(Cl)c3)oc2C)cc1
    3.2	-0.8	-0.8	0.733	1.4	-5.7	-28.5	-9.9	10.8	i
54. Cc1cc(C)c2c(=O)[nH]n(C3CCCCCC3)c2n1
    -2.6	2.2	-0.7	0.679	0.6	-7.3	18.6	18.1	2.6	i
55. Cc1c(OC(C)C(=O)NCC2CCC(C(=O)O)CC2)ccc2c1oc(=O)c1ccccc12 (centres undefined)
    i	-0.4	0.4	0.712	-0.3	-34.4	12.8	17.7	2.2	i
56. O=C(Cc1ccccc1)NC1CCN(S(=O)(=O)c2ccc(C(=O)O)cc2)CC1
    3.0	0.9	0.3	0.683	.	-13.6	.	.	.	.
57. O=C1N(c2ccccc2)C(=Nc2ccccc2)SC12CC2
    2.9	-0.1	-0.5	0.689	-0.7	-9.0	3.3	-1.4	-1.1	i
58. CCN(CC)CCn1c2c(c(SCC(=O)Nc3ccc4c(c3)OCO4)nc1=O)CCC2
    5.3	-0.7	0.6	0.653	0.5	12.7	5.5	8.4	-2.1	i
59. O=C(NCc1cccc(Cl)c1)c1cccc(S(=O)(=O)N2CCCC2)c1
    1.9	-2.6	-0.3	0.699	1.8	.	.	.	.	i
60. Cc1cnc(C(=O)OCC(=O)Nc2ccccc2-c2ccccc2)cn1
    0.6	2.0	-0.9	0.689	-4.4	.	.	.	.	i
